Screening data as filed in PubChem.
FEN1 inh: qHTS Assay for the Inhibitors of Human Flap endonuclease 1 (FEN1); AID 588795, 2011; Recombinant FEN1 flap cleavage, fluorescence, 15 min; Potency, µM (series often up to 114 µM), for the others: at the highest dose activity change, negative = inhibition, actives largely listed as inhibitors; 390,000 compounds, 0.35% hits; P39748; note: nearly all actives have a fitted effect of over 65% in size
Target sequence (P39748 whole entry, looked up): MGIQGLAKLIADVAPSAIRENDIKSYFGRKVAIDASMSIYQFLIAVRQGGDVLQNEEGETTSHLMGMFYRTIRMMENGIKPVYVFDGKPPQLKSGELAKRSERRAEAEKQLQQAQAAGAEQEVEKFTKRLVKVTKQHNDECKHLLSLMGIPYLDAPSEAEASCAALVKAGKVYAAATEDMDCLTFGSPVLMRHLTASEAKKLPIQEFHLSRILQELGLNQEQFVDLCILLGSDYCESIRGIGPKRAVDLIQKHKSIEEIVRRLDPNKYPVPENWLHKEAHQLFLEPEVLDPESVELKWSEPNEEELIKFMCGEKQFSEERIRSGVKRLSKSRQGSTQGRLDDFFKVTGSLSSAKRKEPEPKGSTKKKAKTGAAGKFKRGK
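Compounds are tested as a concentration series against 10 nM FEN1; after a 15 min room-temperature preincubation, 50 nM substrate starts cleavage, with plate reads at 0 and 15 min. Normalized responses are fitted by a Hill equation.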
N370S GC: qHTS Assay for Inhibitors and Activators of N370S glucocerebrosidase as a Potential Chaperone Treatment of Gaucher Disease | 330,000 compounds, 0.092% hits | N370S GC spleen homogenate, 4MU-glucoside fluorescence | AID 2101, 2009 | Potency, µM (highest dose often 59.4 µM), for the others: top-dose activity change, negative = inhibition, usual class: inhibitors;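 note: 0% = full enzyme activity and -100% = no enzyme basal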
The depositor's hits bear a star; ? = inconclusive; nt = not tested or not shown; & = joins results of further samples; [ ] = dose if it differs, or a comment. Calls come from the whole dose curve; as a rule, active = well fitted curve in the direction sought with a large enough effect; inconclusive = small, poorly fitted or top-dose-only effect, or another doubt; inactive = no such curve, though single readings can be large; an effect the other way counts as inactive or inconclusive. Unless noted, % is set by controls: 0 for no effect and ±100 for the full control effect; potency is the fitted concentration of half-maximal effect. Not all compounds are listed, and most or all hits are left out here.

SMILES	FEN1 inh	N370S GC
COC(=O)C/C=C\[C@@H](C)[C@@H](/C=N\OC[C@@H](C)[C@H](OCc1ccccc1)C(C)C)NS(=O)(=O)c1ccc(C)cc1	nt	1%[12.8 µM]
O=C(NCC1CCCO1)Nc1cccc(Cl)c1 (centres undefined)	-4%	6%
CCOC(=O)c1c(-c2ccccc2)oc2ccc(OCc3ccccc3Br)cc12	-10%	nt
NC(=O)NC(=O)CN1c2cccc3cccc(c23)S1(=O)=O	9%	-11%
O=C(c1ccc(Oc2ccccc2)cc1)C1CCCN(C(=O)c2cnccn2)C1 (centres undefined)	-6%	-5%
Cc1ccc(S(=O)(=O)Oc2ccc(/C=N/N=C3/NC(=O)C(CC(=O)O)S3)cc2)cc1[N+](=O)[O-] (centres undefined)	0%	-7%
COc1ccc(CC(=O)OCn2nnc3ccccc3c2=O)cc1	-3%	2%
O=S(=O)(NCCOc1ccccc1F)c1ccc(Cl)cc1F	-16%	nt
N#Cc1nc(-c2ccco2)oc1N1CCN(Cc2ccccc2)CC1	-5%	-4%
Cc1nc([N+](=O)[O-])cn1CC(=O)Nc1ccc(Cl)cc1	16%	4%
COc1ccccc1CCNC(=O)CC1C(=O)NCCN1CCCc1ccccc1 (centres undefined)	18%	-5%
CNC[C@H](O)c1cccc(O)c1	4%	13%&2%
COc1ccc2oc(C(=O)OCC(=O)Nc3ccccc3)c(C)c2c1	-12%	-1%
COc1ccccc1CNC(=O)CN1C(=O)NC2(CCCCCCC2)C1=O	14%	nt
O=C1NCCN1C(=O)C12CC3CC(CC(C3)C1)C2	-2%	13%
CC(C)CC(=O)NCCNC(=O)c1cc(OCC(F)(F)F)ccc1OCC(F)(F)F	1%	3%
COC(=O)c1cc(S(=O)(=O)Nc2ccsc2C(=O)OC)oc1C	-6%	17%
COc1ccc(CNC(=S)Nc2ccccc2C)cc1	-6%	6%
CCOc1ncccc1C(=O)Nc1ccc(F)cc1	-1%	-3%
COc1ccc(/C=C/C(=O)Nc2ccc(S(=O)(=O)Nc3onc(C)c3C)cc2)cc1OC	-11%	-19%
C=CCSc1nc2ccccc2[nH]1	1%	9%
CCC1=C2CC[C@H]3C(=O)N(c4ccccc4)C(=O)[C@H]3[C@H]2[C@@]2(C)C(=NCC(=O)OC)OC(=O)N2C1=O	-8%	0%&2%
CN(C)C(CNC(=S)Nc1cccc(Cl)c1)c1ccccc1 (centres undefined)	0%	-7%
CCN(CC)CCOC(=O)c1c(C)oc2ccc(O)cc12	-10%	-14%
COc1cc(Cl)ccc1OCc1cc(C(=O)N2CCCCCC2)no1	-5%	0%

Profiles, looked up by structure. Values in the order: FEN1 inh, N370S GC
N#Cc1nc(-c2ccco2)oc1N1CCN(Cc2ccccc2)CC1 is entered as -5%, -4%
COc1ccccc1CCNC(=O)CC1C(=O)NCCN1CCCc1ccccc1 (centres undefined) is entered as 18%, -5%

Next part:
SMILES	FEN1 inh	N370S GC
CCCc1nc(N)sc1C(=O)OCC	-7%	-16%
CCOc1ccc(-n2ccnc2SCC(=O)Nc2cc(C)on2)cc1	2%	-9%
COc1ccc(-c2c3c(=O)n(C)c(=O)n(C)c3cn2-c2ccc(O)cc2)cc1	-20%	-3%
CCCN(C(=O)COC(=O)CSc1ccc(C(N)=O)cc1[N+](=O)[O-])C1CCS(=O)(=O)C1 (centres undefined)	-2%	-6%
CCOC(=O)C1=C(C)NC(=O)NC1c1ccco1 (centres undefined)	-14%	-2%
O=C(Nc1ccc2oc(-c3ccccc3)nc2c1)c1cc(-n2cnnc2)ccc1Cl	?	-23%
CCOC(=O)COc1ccc2nsnc2c1	2%	-3%
Cc1ccn2c(=O)nc(SCC(=O)Nc3ccc4c(c3)OCO4)nc2c1	-1%	-8%
CCN1CCN(C(=O)c2cc3c(s2)-c2ccccc2S(=O)(=O)C3)CC1	-17%	4%
CCn1cc([N+](=O)[O-])c(C(=O)N2N=C(c3ccccc3)CC2c2ccc([N+](=O)[O-])cc2)n1 (centres undefined)	0%	1%
COc1cccc2cc(C(=O)OCc3ccccc3)c(=O)oc12	-1%	-6%
COc1cc(C(=O)NCC(c2cccnc2)N2CCN(c3ccccc3)CC2)cc(OC)c1OC (centres undefined)	-7%	-6%
CC(=O)Nc1ccc(OCC(=O)NC(C)c2ccc(F)cc2)cc1 (centres undefined)	-6%	-7%
COc1ccc(N2CCN(C(c3ccccc3)c3nnc(-c4ccccc4Cl)o3)CC2)cc1 (centres undefined)	-13%	nt
CN1CCN(c2ccc(NC(=O)COc3ccc(Cl)cc3Cl)cc2)CC1	5%	-2%
CC(C)(C)OC(=O)N1CCC(c2c(C(=O)NC3CCCCC3)cnn2-c2cccc(F)c2)CC1	-9%	nt
CCOC(=O)c1c(NC(=S)N2CCN(C)CC2)sc2c1CCN(C(=O)OCC)C2	0%	-17%
O=c1cc[nH]c2ccc([N+](=O)[O-])cc12	0%	-2%
CC(=O)Nc1ccc(N(C(=O)c2ccco2)C(C(=O)NC2CCCC2)c2ccncc2)cc1 (centres undefined)	2%	0%
O=C(Nc1cccc(C(=O)Nc2ccc(S(=O)(=O)O)c3cc(S(=O)(=O)O)cc(S(=O)(=O)O)c23)c1)Nc1cccc(C(=O)Nc2ccc(S(=O)(=O)O)c3cc(S(=O)(=O)O)cc(S(=O)(=O)O)c23)c1	1µM*	-5%&-21%&-11%
COc1ccc(NC(=O)c2ccc(C)cc2)c(OC)c1	5%	-1%
Cc1ccc2oc(-c3cccc(NC(=S)NC(=O)/C=C/c4ccco4)c3)nc2c1	-16%	-11%
COc1ccc(N2CCN(C(=O)CCc3ccc(S(=O)(=O)NC(C)(C)C)cc3)CC2)cc1	-18%	-1%
COc1ccccc1-n1c(CNC(=O)c2ccco2)nnc1SCC(=O)Nc1cc(C)ccc1C	0%	10%
Cc1cc(C)nc(N(C#N)CC(=O)c2ccccc2)n1	4%	-5%

Structural class: the compounds so far with a thiophene ring, fused or not (three)
SMILES	FEN1 inh	N370S GC
COC(=O)c1cc(S(=O)(=O)Nc2ccsc2C(=O)OC)oc1C	-6%	17%
CCN1CCN(C(=O)c2cc3c(s2)-c2ccccc2S(=O)(=O)C3)CC1	-17%	4%
CCOC(=O)c1c(NC(=S)N2CCN(C)CC2)sc2c1CCN(C(=O)OCC)C2	0%	-17%

Additional structures follow:
SMILES	FEN1 inh	N370S GC
CN1CCN(C(=O)/C=C/c2ccccc2)CC1	-2%	-5%
COc1ccc(NC(=O)CN(C)C(=O)CSCc2ccc(C)cc2)cc1	-12%	1%
COC(=O)[C@@H]1[C@@H](C)N(CCc2cc(OC)c(OC)c(OC)c2)C(=O)N[C@H]1c1ccccc1	nt	8%[12.8 µM]
CC(=O)O[C@H]1C(=O)[C@@]2(C)C([C@H](OC(=O)c3ccccc3)[C@]3(O)C[C@H](OC(=O)[C@H](O)[C@@H](NC(=O)c4ccccc4)c4ccccc4)C(C)=C1C3(C)C)[C@]1(OC(C)=O)CO[C@@H]1C[C@@H]2O (some centres undefined)	nt	-15%&-5%
CCC(C)(C)n1nnnc1C(c1cccnc1)N1CCCc2ccccc21 (centres undefined)	-18%	0%
O=C(Nc1ccc(N2CCOCC2)nc1)c1ccc(F)cc1	-7%	3%
C=CC(O)Cc1c(C)n[nH]c1C (centres undefined)	-2%	20%
NC(=O)NC(=O)COC(=O)c1cccc(NS(=O)(=O)/C=C/c2ccccc2)c1	-3%	2%
CN(CCc1ccccn1)C1CC(=O)N(c2ccc(Cl)cc2)C1=O (centres undefined)	10%	-19%
Cc1ccc(NC(=S)c2ccccc2)cc1	-8%	3%
O=C(CC1C(=O)NCCN1C/C=C/c1ccccc1)NCCc1cccnc1 (centres undefined)	-2%	3%
CS(=O)(=O)N(CC(O)Cn1c2ccccc2c2ccccc21)c1cccc2ccccc12 (centres undefined)	3%	-1%
O=C(O)c1ccc(CSc2nnc(-c3ccco3)n2-c2ccccc2)cc1	2%	5%
O=c1[nH]c(=S)[nH]c2sccc12	-1%	-1%
CCOc1ccc(NC(=O)C(c2ccccn2)N(C(=O)CCl)c2ccc(F)cc2)cc1 (centres undefined)	-9%	?
Nc1ccc2nc(SCc3cccc(F)c3)sc2c1	-2%	8%
CNC(=S)NNc1nc(C)cc(C)n1	5%	-8%
Cn1cccc1C(=O)NCc1ccc(Cl)cc1	-9%	0%
CCCCC(=O)Nc1cc(-c2cn3cccnc3n2)ccc1C	17%	nt
CC(C)NC(=O)N(C)C[C@H]1Oc2c(NC(=O)Nc3ccccc3)cccc2C(=O)N([C@H](C)CO)C[C@@H]1C	-4%	nt
Fc1ccccc1Nc1nc2c(s1)CCc1ccccc1-2	nt	6%
CC(Oc1ccc(Cl)cc1)C(=O)Nc1ccccc1C(=O)N1CCOCC1 (centres undefined)	9%	-8%
CCN(CC)C(=O)CSc1nnc([C@@H](NC(=O)OC(C)(C)C)C(C)C)o1	-1%	4%
CC1CN(C)C(C)C/C1=N\Oc1ccc([N+](=O)[O-])cc1 (centres undefined)	3%	-1%
O=C(O)c1ccc(COc2c(F)c(F)cc(F)c2F)cc1	-4%	7%

The list continues.
SMILES	FEN1 inh	N370S GC
Cc1c(OCC(=O)NC(Cc2c[nH]c3ccc(O)cc23)C(=O)O)ccc2c3c(c(=O)oc12)CCC3 (centres undefined)	1%	7%
Cc1cccc(NC(=O)C2CC(=O)NC(Nc3nc4ccccc4s3)=N2)c1 (centres undefined)	nt	-7%
Cc1ccc(NC(=O)c2[nH]cnc2C(=O)NN)cc1	3%	-3%
Cc1ccc(S(=O)(=O)N(C)c2ccc(OC(=O)COc3ccccc3)cc2)cc1	-6%	nt
O=C(O)CCNS(=O)(=O)c1ccccc1Br	-2%	-2%
CN(C)CCCN(C(=O)c1ccc(N2C(=O)CCC2=O)cc1)c1nc2c(F)cccc2s1	-8%	2%
COc1ccccc1/C=C1\SC(=S)N(CCC(=O)N2CCN(C)CC2)C1=O	-5%	-28%
Cc1cccc(NC(=S)NNC(=O)CC(C)O)c1C (centres undefined)	-5%	5%
COc1ccc2nc(C)cc(SCC(=O)N/N=C/c3c(OC)ccc4ccccc34)c2c1	6%	3%
COCC(=O)N(C)C[C@H]1N[C@@](C)(C(=O)OC)[C@H]2C(=O)N(Cc3ccccc3)C(=O)[C@@H]12	2%	nt
Cc1cc(=O)n(CC(=O)N2CCCCC2)c2c1c(C)nn2C	2%	nt
COc1cc(C(CCN2CCOCC2)c2c(OC)cc(OC)c3c(-c4ccccc4)cc(=O)oc23)cc(OC)c1OC (centres undefined)	-3%	?
O=C(NC(NC(=S)Nc1c(Cl)cccc1Cl)C(Cl)(Cl)Cl)OCc1ccccc1 (centres undefined)	-17%	12%
O=C(CNC(=O)c1ccccc1)NC1(C(=O)NC2CCCC2)CCCCC1	-14%	-9%
CC1(C)CC2C1CCC1(O)CC2(C)CCC1N(O)c1ccc(C(=O)NCCO)cn1 (centres undefined)	0%	nt
CCOC(=O)CNC(=O)c1ccc(SCC)cc1	0%	5%
O=C(Cn1cnnn1)NC1CCCN(Cc2ccccc2F)C1 (centres undefined)	-9%	-3%
COc1ccc(NC(=O)CN2C(=O)C3(SCC(=O)N3c3cccc(OC)c3)c3ccccc32)cc1 (centres undefined)	-10%	nt
COc1ccc(C2CC(=O)c3c(ccc4ccccc34)N2)cc1OC (centres undefined)	-4%	-2%
COc1ccc(/C=N/c2oc(-c3ccccc3)cc2C#N)cc1OC	-4%	11%
CC12CN3CCN(CC(C3)/C1=N\N=C1/C3CN4CCN(C3)CC1(C)C4)C2	0%	-1%
O=C(Cn1cnc2c(nnn2Cc2ccccc2)c1=O)N1CCCc2ccccc21	-6%	-4%
CC(C)CN(CCCNC(=O)CN1C(=O)COc2ccc(S(=O)(=O)N3CCCC3)cc21)CC(C)C	-17%	-25%
O=c1[nH]c2cc3c(cc2cc1CN(CC1CCCO1)S(=O)(=O)c1ccccc1)OCCO3 (centres undefined)	-3%	14%
COc1ccc2nc3sc(C(=O)NCc4cccs4)c(N)c3cc2c1	nt	-27%

5 successive entries from above, for reference:
SMILES	FEN1 inh	N370S GC
COC(=O)C/C=C\[C@@H](C)[C@@H](/C=N\OC[C@@H](C)[C@H](OCc1ccccc1)C(C)C)NS(=O)(=O)c1ccc(C)cc1	nt	1%[12.8 µM]
O=C(NCC1CCCO1)Nc1cccc(Cl)c1 (centres undefined)	-4%	6%
CCOC(=O)c1c(-c2ccccc2)oc2ccc(OCc3ccccc3Br)cc12	-10%	nt
NC(=O)NC(=O)CN1c2cccc3cccc(c23)S1(=O)=O	9%	-11%
O=C(c1ccc(Oc2ccccc2)cc1)C1CCCN(C(=O)c2cnccn2)C1 (centres undefined)	-6%	-5%

Next entries:
SMILES	FEN1 inh	N370S GC
COc1ccc(S(=O)(=O)CCc2nnc(NC(C)=O)s2)cc1	5%	-1%
Cc1cc(Br)ccc1NC(=O)CN(C)C(=O)CN1C(=O)NC2(CCCC2)C1=O	3%	1%
Cc1cccc(NC(=O)Nc2ccc3c(c2)OCO3)n1	-17%	?
CN(CC(=O)Nc1nc2ccc(F)cc2s1)S(=O)(=O)c1ccc(Cl)cc1	-21%	-19%
CN(CC(=O)Nc1ccc(S(=O)(=O)N(C)C)cc1)Cc1ccc(C(F)(F)F)cc1	-11%	-8%
c1ccc(C(CN2CCOCC2)c2ccccc2)cc1	-19%	5%

4 entries drawn at random from those above, as already listed:
SMILES	FEN1 inh	N370S GC
Cc1cccc(NC(=O)Nc2ccc3c(c2)OCO3)n1	-17%	?
COc1ccc(S(=O)(=O)CCc2nnc(NC(C)=O)s2)cc1	5%	-1%
CN(CC(=O)Nc1ccc(S(=O)(=O)N(C)C)cc1)Cc1ccc(C(F)(F)F)cc1	-11%	-8%
Cc1cc(Br)ccc1NC(=O)CN(C)C(=O)CN1C(=O)NC2(CCCC2)C1=O	3%	1%
